# High-throughput results deposited in PubChem BioAssay by Johns Hopkins Ion Channel Center.
# KCNQ2 enhance: potentiators of rat KCNQ2 potassium channel. 310,000 tested, 0.54% active. AID 2239. B-score at 10 µM. O88943. CHO-K1 KCNQ2, FluxOR thallium flux fluorescence; active compounds read high;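 active = fluorescence ratio B-score at least 3 SD of library B-scores, with initial fluorescence B-score within 3 SD, cut at about 5.3 in these data; same plate scores as AID 2156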;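 also: B-score of peak minus minimum over baseline fluorescence ratio after K+ and Tl+ stimulus; positive B-score means potentiation of KCNQ2 with more thallium influx and brighter signal; only the inactives scoring about 0 or higher are listed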
# Target sequence (O88943 whole entry, looked up): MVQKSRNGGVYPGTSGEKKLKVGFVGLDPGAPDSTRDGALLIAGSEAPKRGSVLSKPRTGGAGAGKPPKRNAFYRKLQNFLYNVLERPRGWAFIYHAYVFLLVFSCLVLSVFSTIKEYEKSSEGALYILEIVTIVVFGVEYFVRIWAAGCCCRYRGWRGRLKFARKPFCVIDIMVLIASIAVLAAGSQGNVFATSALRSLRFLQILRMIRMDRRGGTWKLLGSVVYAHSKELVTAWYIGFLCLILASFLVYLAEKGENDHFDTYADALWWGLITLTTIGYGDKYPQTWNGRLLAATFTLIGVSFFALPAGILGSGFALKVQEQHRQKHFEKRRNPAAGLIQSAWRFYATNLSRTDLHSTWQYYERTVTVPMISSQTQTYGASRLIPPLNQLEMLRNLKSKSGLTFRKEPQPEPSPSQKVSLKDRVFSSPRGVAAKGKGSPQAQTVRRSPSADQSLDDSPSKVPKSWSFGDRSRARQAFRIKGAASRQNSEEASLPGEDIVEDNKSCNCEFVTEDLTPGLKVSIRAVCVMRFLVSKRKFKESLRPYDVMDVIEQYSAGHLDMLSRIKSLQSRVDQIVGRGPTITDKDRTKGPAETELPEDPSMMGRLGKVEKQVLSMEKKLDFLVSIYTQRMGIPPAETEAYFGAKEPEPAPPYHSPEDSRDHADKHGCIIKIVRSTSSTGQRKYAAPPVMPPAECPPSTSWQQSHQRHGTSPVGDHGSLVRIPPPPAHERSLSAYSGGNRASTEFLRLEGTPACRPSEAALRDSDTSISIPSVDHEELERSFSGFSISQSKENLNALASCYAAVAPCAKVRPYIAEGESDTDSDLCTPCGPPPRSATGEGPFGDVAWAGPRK
# KCNQ2 enhance baseline: recorded beside KCNQ2 enhance, whose call it bears; B-score; compound at 10 µM; measured here: initial fluorescence intensity artifact check;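 brightness before thallium and not channel activity; 0 = typical well and far values either way flag optical interference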
# * hit, by the source's call. This is a subset. The share of hits here may be higher or lower than overall.
KCNQ2 enhance	KCNQ2 enhance baseline	Structure
0.21	0.03	O=C(Nc1ccc(OC(F)(F)F)cc1)c1n[nH]c(Cn2cncn2)n1
0.88	-2.5	COCC(=O)N1CCC(Oc2ccc(C(=O)NCCCn3cccn3)cc2)CC1
1.3	-0.96	Cc1ccc(C(=O)O)cc1-n1c(C)cc(C=O)c1C
0.92	-0.06	NS(=O)(=O)c1cc(C(=O)OCC(=O)Nc2ccccc2[N+](=O)[O-])ccc1Cl
1.2	-0.12	CCCc1[nH]c2ccc(C(=O)OC)cc2c1CCC
0.26	-3.2	CS(=O)(=O)N(CC(=O)NCc1ccccn1)c1ccc2c(c1)OCCO2
0.82	0.35	CC(C(=O)NCCc1ccc(Cl)cc1)n1c(=O)c2cccn2c2cccnc21 (stereo not given)
0.01	1.4	COC(=O)c1ccc(CO/N=C/c2ccc(OC)cc2)o1
0.01	2	CNc1oc(-c2ccccc2)nc1S(=O)(=O)c1ccc(C)cc1
0.23	-0.06	O=S(=O)(c1cccs1)N1CCN(c2ncccn2)CC1
0.68	-0.79	O=c1c(-c2ccc3c(c2)OCCO3)coc2c(CN3CCOCC3)c(O)ccc12
0.01	0.7	CN(C)CCCNS(=O)(=O)c1ccc(Cl)s1
0.48	-0.19	O=C(CCNC(=O)c1ccc(Cl)cc1)Nc1ccccc1Cl
0.9	-0.2	Cc1ccn2c(=O)nc(SCC(=O)c3ccccc3)nc2c1
0.03	0.05	CCCSc1nnc(N2C(=O)CC(c3ccsc3)C3=C2CCCC3=O)s1 (stereo not given)
0.07	-1.8	O=C(O)c1ccc(NCc2ccc3c(c2)OCO3)cc1
0.52	0.37	C=CCSc1cc(C)nc2c(-c3ccccc3)cnn12
2.1	0	CCn1ncc(C2=NOC(C(=O)NCc3ccccc3)C2)c1C (stereo not given)
0.6	-1.3	CCCCc1ccc(NC(=S)N2CCN(C)CC2)cc1
0.12	1	O=C(CCSc1nnc(-c2ccco2)o1)Nc1ccc(F)cc1
0.9	-0.03	O=C(O)c1cccc(-c2nnn(Cc3ccccc3Cl)n2)c1
0.27	-0.34	O=C(Nc1ccc(Br)cc1F)c1sccc1-n1cccc1
0.01	0.2	COc1ccc(OC)c(S(=O)(=O)Nc2ccc(-c3ccc4nnc(C)n4n3)cc2)c1
1	1.2	Cc1noc(C)c1CSCC(=O)N(C)CC(=O)Nc1ccc(Cl)c(C(F)(F)F)c1
0.24	-1.3	CCNc1nc(NCC)n2c(SCC(=O)NC34CC5CC(CC(C5)C3)C4)nnc2n1
0.72	0.17	CSc1nsc(SCC(=O)Nc2ccc(Cl)c(C(=O)O)c2)n1
0.71	-1.9	Cc1cc(C(=O)Nc2ccc(Cl)cc2)c(C)n1-c1ccccc1
0.37	1.4	C/C(CC(=O)Nc1ccc2c(c1)OCCO2)=N\NC(=O)COc1ccc(C)cc1
1.3	1.7	CN(C)c1nc(N)c([N+](=O)[O-])c(N2CCCCCC2)n1
0.46	1.6	CCn1ccnc1CNC(=O)CC1C(=O)NCCN1Cc1ccc(OC)cc1OC (stereo not given)
0.85	-0.02	c1ccc(N2CCN(CC3CCCCC3)CC2)cc1
0.01	-1.1	COc1cccc(-c2nn(C)c3sc(C(=O)NCc4ccco4)cc23)c1
0.3	-0.12	CC(=O)c1ccc2c(ccc3ccccc32)c1
2	-0.03	CCOc1cc(/C=N/NC(=O)C(=O)NCc2ccc3c(c2)OCO3)ccc1OCC(=O)N1CCOCC1
1.1	0.35	CCCCNC(=O)c1c(C)cc(=O)oc1C
0.01	0.45	COC(=O)Cc1c(C(=O)OC)nnn1-c1cccc(C(F)(F)F)c1
0.01	0.01	O=S(=O)(c1ccc(S(=O)(=O)N2CCCN(Cc3ccccc3)C2)cc1)N1CCCCCC1
1.3	0.25	c1ccc(-c2ccc(-c3ccncn3)cc2)cc1
0.35	-0.67	COc1ccc(NC(=O)c2nn(C34CC5CC(CC(C5)C3)C4)cc2[N+](=O)[O-])cc1
0.15	-0.6	O=C(c1cc(F)c(F)c(F)c1F)N1CCN(Cc2ccc3c(c2)OCO3)CC1
2	-0.05	CC(C)(C)c1ccc(-c2noc(C(=O)NN)n2)cc1
0.11	0.47	CC(=O)NCCC1CCN(C(=O)C2CCC(=O)N(C3CCCC3)C2)CC1 (stereo not given)
2	0.94	COc1ccc(-c2n[nH]c3c2CN(C(=O)c2ccc(F)cc2)CC3)cc1
1.2	-1.3	CCc1noc(C)c1C(=O)Nc1cc(Cl)ccc1-n1cncn1
1.2	0.53	O=C(NCc1cccnc1)c1ccc(COc2ccccc2Cl)o1
0.53	-0.05	CC(=O)Nc1ccc(C(=O)Nc2nc(-c3cccnc3)cs2)cc1
0.56	1.5	COc1ccc(C(=O)NNC(=O)Nc2ccc(C)cc2)cc1
0.02	-0.58	COCCOCC(O)CN1CCN(c2ccccc2)CC1 (stereo not given)
0.35	-2.2	Cc1csc(NC(=O)CCNC(=O)c2ccc([N+](=O)[O-])cc2)n1
0.26	-0.01	CC1(C)CC(=O)N(c2cccc(C(F)(F)F)c2)C(=O)C1
0.47	-0.03	O=C(c1ccc(COc2ccc3ccccc3c2)o1)N1N=C(C(F)F)CC1(O)C(F)F (stereo not given)
1.2	-1.6	CCC(=O)Nc1nc2nc(-c3ccccc3)cc(-c3ccccc3)n2n1
1.3	-2.2	O=c1c2cnn(-c3ccccc3)c2ncn1CCc1ccccc1
1.7	-0.14	CCCCn1c(Cl)nc2c1c(=O)n(C)c(=O)n2C
2.1	1.1	NS(=O)(=O)c1cc(C(=O)NCC2CCCCC2)ccc1Cl
1.9	-0.37	Cc1oc2c(C)c3oc(=O)c(CCC(=O)N[C@@H](CC(C)C)C(=O)O)c(C)c3cc2c1C
1.8	1.2	Cc1ccc(CNC(=O)CN(C(=O)C2(C)CC(=O)N=C3C=CC=CN32)c2ccc(F)cc2)cc1 (stereo not given)
1.6	1.1	Nc1nc(NCCc2ccccc2)nc(NCCO)c1[N+](=O)[O-]
0.72	0.37	CCOc1ccc(NC(=S)N2CCCC2)cc1
0.23	-0.72	CCC(C)N(C(=O)COC(=O)C1CCN(S(=O)(=O)c2ccc(C)c(C)c2)CC1)C1CCS(=O)(=O)C1 (stereo not given)

# Record cards (already shown).
# Shown for `O=c1c2cnn(-c3ccccc3)c2ncn1CCc1ccccc1` : KCNQ2 enhance = 1.3; KCNQ2 enhance baseline = -2.2
# Shown for `Nc1nc(NCCc2ccccc2)nc(NCCO)c1[N+](=O)[O-]` : KCNQ2 enhance = 1.6; KCNQ2 enhance baseline = 1.1
# Shown for `CC1(C)CC(=O)N(c2cccc(C(F)(F)F)c2)C(=O)C1` : KCNQ2 enhance = 0.26; KCNQ2 enhance baseline = -0.01

# More entries follow:
KCNQ2 enhance	KCNQ2 enhance baseline	Structure
0.42	-0.77	Cc1ccc(OCC(=O)c2cc(C)n(C)c2C)c([N+](=O)[O-])n1
0.58	-1.9	CC(C)c1ccc(S(=O)(=O)N2CCN(C(=O)C3CCCCC3)CC2)cc1
1.2	-3.8	Cc1c(CN(C)C(=O)CSc2nc(-c3ccco3)cc(C(F)(F)F)n2)cnn1C
1.2	0.64	COc1ccccc1OCCn1cc(C#N)c2ccccc21
0.01	-1.2	O=C(CCCO)N/N=C/c1cc(Br)ccc1O
0.21	-0.92	Cc1[nH]ccc(=O)c1OCC(=O)O
0.44	0.38	CCOc1ccc(S(=O)(=O)Nc2nc3cc(OC)ccc3s2)cc1
0.04	0.88	C=CCc1c(C)nc(C)nc1N/N=C/c1ccc(N(C)C)cc1
0.63	-0.23	Cc1ccc(S(=O)(=O)C2C(=O)NC3(C)CC2c2ccccc2O3)cc1 (stereo not given)
2.3	3.7	CC(NC(=O)Nc1nnc(C(F)(F)F)s1)(C(F)(F)F)C(F)(F)F
0.03	-2.1	O=C(CSc1nnc(-c2ccncc2)n1Cc1ccccc1)NCCc1ccccc1
1.2	0.06	O=C(Nc1cccc2c1C(=O)NC2=O)c1ccc(N2C(=O)CCC2=O)cc1
0.27	0.6	CCNC(=O)NC(=O)C(C)OC(=O)CCCc1nc2ccccc2s1 (stereo not given)
1.4	-0.78	O=C(c1ccc(OC2CCN(CCc3ccccc3)CC2)cc1)N1CCCC(O)C1 (stereo not given)
0.09	-0.7	Cc1oc2cc3oc(=O)c(CCC(=O)NCc4ccccn4)c(C)c3cc2c1C

# Filtered by structure: those above containing bromine
KCNQ2 enhance	KCNQ2 enhance baseline	Structure
0.27	-0.34	O=C(Nc1ccc(Br)cc1F)c1sccc1-n1cccc1
0.01	-1.2	O=C(CCCO)N/N=C/c1cc(Br)ccc1O

# The list goes on:
KCNQ2 enhance	KCNQ2 enhance baseline	Structure
0.03	0.29	CCc1cc(=O)oc2cc(C)cc(OCC(=O)C(C)(C)C)c12
0.9	-1.9	O=C(CCCOc1ccccc1)Nc1ccc(Cl)cn1
0.25	-1.6	O=C1NCCN1C(=O)c1cccc(Cl)c1
2.6	-1.1	CCOc1ccc(C(=S)N2CCCC2)cc1OC
1.6	-0.5	O=C(CN1CCOCC1)NN=C(c1ccccc1)c1ccccc1
1.2	-0.04	Cc1ccsc1/C=N/NC(=O)CNC(=O)c1ccccc1
2.9	-0.73	COc1ccc(NC(=O)c2cccs2)cc1
1.5	-0.56	CC(NC(=O)C(=O)N1CCOCC1)C(c1cccs1)N1CCN(c2ccccc2F)CC1 (stereo not given)
0.24	1.5	O=C(Oc1ccc(/C=N/NC(=O)c2ccccc2O)cc1)c1ccccc1
1.7	-0.54	CC(=O)c1ccc(OCCCC(=O)Nc2ccc(S(=O)(=O)N3CCOCC3)cc2)cc1
0.21	1.4	COc1cc(C(=O)NCC(=O)NCC2COc3ccccc3O2)cc(OC)c1OC (stereo not given)
1.8	-0.92	NC(=O)c1ccc(-n2nc(C(F)(F)F)c3c2CCCC3)cc1
1	1	Cc1cccc(NC(=O)c2ccc(NCCc3ccccc3)c([N+](=O)[O-])c2)c1
0.13	-0.93	CCOC(=O)C1(Cc2ccc(Cl)cc2)CCN(C(=O)c2ccoc2)CC1
1.3	0.58	COc1ccc(N2C(=O)CC(Nc3ccc(C)cc3)C2=O)cc1 (stereo not given)
0.13	-1.1	CCOc1ccc(Nc2oc(-c3ccc(Cl)cc3)nc2C#N)cc1
0.4	-0.48	CCCCOP(=O)(c1ccc(N(C)C)cc1)C(O)c1cc(OC)c(OC)c(OC)c1 (stereo not given)
0.03	-1.6	COc1ccc(NC(=O)c2nc[nH]c2C(=O)NCc2ccccc2)cc1
0.99	1.1	CCn1c(CNC(=O)c2ccccc2F)nnc1SCC(=O)Nc1nncs1
0.22	1.6	COCC(C)n1c(COc2ccccc2F)nnc1SCc1c(C)noc1C (stereo not given)
0.19	-1.1	CC1CCC(C(C)C)C(OC(=O)C[n+]2cc(-c3ccc(Cl)cc3)n3c2CCC3)C1 (stereo not given)
0.1	2	OCCC1CN(Cc2cc(F)ccc2F)CCN1CCCc1ccccc1 (stereo not given)
0.01	0.05	NC(=O)CC(NC(=O)c1ccccc1)c1ccc(N2CCc3ccccc3C2)c([N+](=O)[O-])c1 (stereo not given)
0.83	3	CCOc1ccc(OCCCCN2CCCC2)cc1
1.1	0.04	O=C(Nc1ccc(N2CCOCC2)cc1)C1CCN(S(=O)(=O)c2ccccc2F)CC1
1	-0.61	CC(C)c1nc2sc3c(SCC(N)=O)ncnc3c2c2c1CCC2
0.48	-0.06	Cc1nn(Cc2ccccc2)c(Cl)c1/C=C/C(=O)OC(C)C(=O)N1CCCC1 (stereo not given)
0.73	0.6	Cc1[nH]n2cnnc2c(=O)c1Br
0.03	-0.85	C=CCN1C(c2ccc(Br)cc2)=CS/C1=C(/C#N)c1nnc(N2CCOCC2)n1-c1ccccc1
0.82	0.87	O=c1c(-c2ccccc2)cnc2n1CCS2

# No new results follow: entries from further up.
KCNQ2 enhance	KCNQ2 enhance baseline	Structure
0.99	1.1	CCn1c(CNC(=O)c2ccccc2F)nnc1SCC(=O)Nc1nncs1
0.22	1.6	COCC(C)n1c(COc2ccccc2F)nnc1SCc1c(C)noc1C (stereo not given)
0.19	-1.1	CC1CCC(C(C)C)C(OC(=O)C[n+]2cc(-c3ccc(Cl)cc3)n3c2CCC3)C1 (stereo not given)

# (continued)
KCNQ2 enhance	KCNQ2 enhance baseline	Structure
0.04	0.06	O=C(NCCCn1cccn1)c1cc(COc2ccc(F)cc2Cl)on1
0.39	2.4	C=CCn1c(COc2ccccc2)nnc1SCC(=O)Nc1ccc2c(c1)OCCO2
0.13	0.42	Cc1ccccc1NS(=O)(=O)c1nnc(NC(=O)CC(C)C)s1
0.44	-1.9	Cc1cc(C)nc(NS(=O)(=O)c2ccc(N/C=C/C(=O)c3ccc(Cl)c(Cl)c3)cc2)n1
0.09	-0.23	CC(NC(=O)c1ccco1)c1nc(-c2ccc(Cl)cc2)no1 (stereo not given)
0.09	1.1	O=C(O)CCCC(=O)Nc1ccc(Oc2ncnc3cc(Cl)ccc23)nc1
0.93	-1.3	CCOC(=O)c1c(CN(C)C)n(C)c2c(O)c(N=NC(N)=O)c3ccc(Br)cc3c12
0.07	0.18	Cc1ccccc1NC(=O)CN1CCN(Cc2ccccc2)CC1
0.43	1	NS(=O)(=O)c1ccc(NC(=S)N2CCC(O)CC2)cc1
0.44	0.74	Oc1ccc(Cl)cc1-c1cc(-c2ccccc2)n[nH]1
2.7	-0.72	Cc1nc(N2CCOCC2)[nH]c(=O)c1CCC(C)C
1.1	1.3	COc1cc(Cl)cc(C=O)c1OCC(=O)O
0.24	-0.92	O=C(CN1C(=O)NC2(CCCC2)C1=O)Nc1ccc(C(F)(F)F)cc1
1.4	1	Cc1cccc(C)c1NC(=O)Cn1c(=O)n(CCCC(=O)NC2CCN(Cc3ccccc3)CC2)c(=O)c2ccccc21
1.3	-0.34	CC(C)(C)c1ccc(NC(=O)N2CCCN(c3c(Cl)cncc3Cl)CC2)cc1
1.5	1.6	CC(C)CC(=O)Nc1ccc2oc(-c3ccncc3)nc2c1
